Env fusion inh: HIV envelope-mediated fusion inhibition; inhibition, % at 12.3 µM; HeLa-JRFL Env/CEM21 cell fusion, luciferase; AID 651610; hit rate 1.1% among 360,000;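 active means mean replicate inhibition score of at least 50 and every replicate individually at or above 50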;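 further: 0% = plate neutral controls and 100% = maraviroc near 300 nM; one replicate is shown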
MT1-MMP act inh: MT1-MMP (human) activation inhibition. AID 651647. hit rate 0.061% among 360,000. GFP/RFP ratio change, % at 20 µM. HT1080 RFP-PRO-GFP cells, GFP/RFP ratio fluorescence, overnight; percent of plate control window, DMSO zero. P50281;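 active means GFP/RFP ratio change of at least 30% with cell ATP level not reduced by more than half and red fluorescence within 50% of control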; further: strong numbers were not always called active
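Assay system – RFP-PRO-GFP reporter HT1080 cells · Compound dosing – single dose of 20 µM compound, 1% DMSO final · Incubation – overnight compound exposure at 37 °C · Measure – GFP/RFP fluorescence ratio · Benchmarks – DMSO wells and RFP-L50D-GFP cells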
MT1-MMP act inh RFP: recorded beside MT1-MMP act inh, whose call it bears; RFP signal change, %; measured here: RFP expression control read;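 0 = vehicle wells; hits needed this value within 50% of zero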
The depositor's hits bear a star; . = no result given; [ ] = another dose, or the depositor's remark. Not all compounds are listed; count on the stated rates, not on these rows.

SMILES	Env fusion inh	MT1-MMP act inh	others
O=C(C[C@H]1CC[C@@H]2[C@H](COC[C@@H](O)CN2C(=O)Cc2ccccc2)O1)NC1Cc2ccccc2C1	20[16.7 µM]	.
O=C(C[C@@H]1CC[C@H]2[C@@H](COC[C@H](O)CN2Cc2cccc(C(F)(F)F)c2)O1)NCCc1ccncc1	9[16.7 µM]	.
CO[C@@H]1CN(C)C(=O)c2ccc(NC(=O)c3nc4ccccc4s3)cc2OC[C@@H](C)NC[C@@H]1C	-1[16.7 µM]	.
C[C@@H]1CN([C@@H](C)CO)C(=O)c2cc(N(C)C)ccc2O[C@@H](C)CCCCO[C@@H]1CN(C)C(=O)Nc1ccc(C(F)(F)F)cc1	10[16.7 µM]	.
CNC[C@@H]1Oc2ncc(Br)cc2C(=O)N([C@H](C)CO)C[C@H]1C	2[16.7 µM]	.
CO[C@@H]1CN(C)C(=O)c2cc(NC(=O)c3cccc(F)c3)ccc2OC[C@H](C)N(C)C[C@@H]1C	0[16.7 µM]	.
O=C(C[C@@H]1CC[C@@H]2[C@H](COC[C@@H](O)CN2Cc2cccc(C(F)(F)F)c2)O1)NCCc1ccncc1	-12[16.7 µM]	.
CCCCCCCCN1C(=O)[C@H](CC(=O)N2CCCC2)C[C@@]2(C(=O)OCC)CCCC=C12	44	.
CO[C@@H]1CN(C)C(=O)c2cc(NC(=O)Nc3c(C)noc3C)ccc2OC[C@H](C)N(CCC(F)(F)F)C[C@@H]1C	-7[16.7 µM]	.
COCC(=O)Nc1ccc2c(c1)OC[C@@H](C)N(C(=O)C1CCCC1)C[C@@H](C)[C@H](OC)CN(C)C2=O	20[16.7 µM]	.
c1ccc(-c2nc3ccccc3nc2-c2ccc(CN3CCC(c4nc5ccccc5[nH]4)CC3)cc2)cc1	22	.
COC(=O)C[C@H]1CC[C@H]2[C@@H](COc3ccc(NC(=O)Nc4ccc(C#N)cc4)cc3C(=O)N2C)O1	-1[16.7 µM]	.
Cc1ccccc1-c1cnc2c(c1)C(=O)N([C@@H](C)CO)C[C@@H](C)[C@H](CN(C)C(=O)CC1CC1)O2	-10[16.7 µM]	.
CN(C)c1ccc2c(c1)[C@@H]1C[C@@H](CC(=O)N3CCOCC3)O[C@@H](CO)[C@@H]1O2	-6[16.7 µM]	.
CO[C@H]1CN(C)C(=O)c2cc(NC(=O)c3cccc(F)c3)ccc2OC[C@H](C)N(C)C[C@@H]1C	12[16.7 µM]	.
C[C@@H]1CCCCO[C@@H](CN(C)C(=O)Nc2ccccc2)[C@H](C)CN([C@@H](C)CO)C(=O)c2cc(NC(=O)Nc3ccccc3)ccc2O1	-15[16.7 µM]	.
COCC(=O)N[C@H]1C=C[C@@H](CC(=O)N2CCCCC2)O[C@@H]1CO	3[16.7 µM]	.
CC(C)NC(=O)Nc1ccc2c(c1)C(=O)N([C@H](C)CO)C[C@H](C)[C@H](CN(C)C(=O)NC1CCCCC1)O2	3[16.7 µM]	.
CC(C)C#Cc1ccc2c(c1)O[C@H](CN(C)C)[C@H](C)CN([C@H](C)CO)S2(=O)=O	-8[16.7 µM]	.
C[C@H]1CN([C@@H](C)CO)C(=O)c2ccccc2-c2ccccc2CO[C@H]1CN(C)C(=O)[C@@H]1CCCN1C	-35[16.7 µM]	.
CO[C@H]1CN(C)C(=O)c2cc(NC(=O)Nc3ccccc3)ccc2OC[C@H](C)N(C(=O)CC2CC2)C[C@@H]1C	-57[16.7 µM]	.
O=C(C[C@@H]1CC[C@H]2[C@@H](COC[C@@H](O)CN2CCC(F)(F)F)O1)NCC1CCCCC1	44[16.7 µM]	.
CNC[C@H]1OCCCC[C@@H](C)Oc2ccc(N)cc2C(=O)N([C@H](C)CO)C[C@H]1C	-14[16.7 µM]	.
CC(C)CC#Cc1ccc2c(c1)O[C@H](CN(C)Cc1cccnc1)[C@@H](C)CN([C@@H](C)CO)S2(=O)=O	2[16.7 µM]	.
C[C@@H]1CN([C@@H](C)CO)C(=O)Cc2cc(NC(=O)Nc3ccc(C(F)(F)F)cc3)ccc2O[C@H]1CN(C)S(=O)(=O)c1ccc(F)cc1	43[16.7 µM]	.

Of the compounds above, 8 contain nitrogen in an aromatic ring:
SMILES	Env fusion inh	MT1-MMP act inh	others
O=C(C[C@@H]1CC[C@H]2[C@@H](COC[C@H](O)CN2Cc2cccc(C(F)(F)F)c2)O1)NCCc1ccncc1	9[16.7 µM]	.
CO[C@@H]1CN(C)C(=O)c2ccc(NC(=O)c3nc4ccccc4s3)cc2OC[C@@H](C)NC[C@@H]1C	-1[16.7 µM]	.
CNC[C@@H]1Oc2ncc(Br)cc2C(=O)N([C@H](C)CO)C[C@H]1C	2[16.7 µM]	.
O=C(C[C@@H]1CC[C@@H]2[C@H](COC[C@@H](O)CN2Cc2cccc(C(F)(F)F)c2)O1)NCCc1ccncc1	-12[16.7 µM]	.
CO[C@@H]1CN(C)C(=O)c2cc(NC(=O)Nc3c(C)noc3C)ccc2OC[C@H](C)N(CCC(F)(F)F)C[C@@H]1C	-7[16.7 µM]	.
c1ccc(-c2nc3ccccc3nc2-c2ccc(CN3CCC(c4nc5ccccc5[nH]4)CC3)cc2)cc1	22	.
Cc1ccccc1-c1cnc2c(c1)C(=O)N([C@@H](C)CO)C[C@@H](C)[C@H](CN(C)C(=O)CC1CC1)O2	-10[16.7 µM]	.
CC(C)CC#Cc1ccc2c(c1)O[C@H](CN(C)Cc1cccnc1)[C@@H](C)CN([C@@H](C)CO)S2(=O)=O	2[16.7 µM]	.

(list continues)
SMILES	Env fusion inh	MT1-MMP act inh	others
C[C@H]1CN([C@@H](C)CO)S(=O)(=O)c2ccc(-c3cccnc3)cc2O[C@@H]1CN(C)C(=O)C1CC1	9[16.7 µM]	.
COC(=O)c1cc2c(c3c4cc(C)ccc4n(S(=O)(=O)c4ccc(OC)cc4)c13)C(=O)N(C)C2	-42	.
C[C@H](CO)N1C[C@H](C)[C@H](CN(C)C)OCCCC[C@H](C)Oc2ccc(NC(=O)c3ccccc3)cc2C1=O	6[16.7 µM]	.
C[C@@H]1ON(C)[C@H]2C[C@H]3c4[nH]c5c(-c6ccccc6)cccc5c4CCN3C[C@@H]12	3	.
C[C@H]1CN([C@@H](C)CO)C(=O)c2ccccc2-c2ccccc2CO[C@H]1CN(C)C(=O)c1ccc(F)cc1	24[16.7 µM]	.
CCc1c(-c2ccc(OC)cc2)ncn1CCc1ccccc1OC	-4	.
COc1ccc(S(=O)(=O)N(C)C[C@@H]2Oc3ncc(/C=C/c4ccccc4)cc3C(=O)N([C@@H](C)CO)C[C@@H]2C)cc1	31[16.7 µM]	.
COCC(=O)Nc1ccc2c(c1)[C@@H]1C[C@H](CC(=O)N[C@H](C)c3ccccc3)O[C@H](CO)[C@@H]1O2	3[16.7 µM]	.
C[C@@H]1CCCCO[C@H](CN(C)C(=O)Nc2ccccc2)[C@H](C)CN([C@H](C)CO)C(=O)c2cc(NC(=O)Nc3ccccc3)ccc2O1	-11[16.7 µM]	.
O=C(C[C@@H]1CC[C@H](NC(=O)CCN2CCCCC2)[C@@H](CO)O1)Nc1nccs1	8[16.7 µM]	.
CO[C@H]1CN(C)C(=O)c2ccc(NC(C)=O)cc2OC[C@H](C)N(C(=O)CN(C)C)C[C@@H]1C	-4[16.7 µM]	.
C[C@@H]1CN([C@@H](C)CO)C(=O)Cc2cc(N(C)C)ccc2O[C@H]1CN(C)S(=O)(=O)c1ccccc1	6[16.7 µM]	.
COCCN(CCOC)C(=O)[C@@H](Cc1ccccc1)NC(=O)[C@H]1O[C@@H](n2ccc(N)nc2=O)[C@H](O)[C@@H]1O	-45	.
O=C(C[C@H]1C[C@H]2c3cc(NC(=O)c4cccnc4)ccc3O[C@H]2[C@@H](CO)O1)NCc1cc(F)ccc1F	-45[16.7 µM]	.
COCCCNC(=O)[C@H]1O[C@@H](n2cnc3c(=O)[nH]c(N)nc32)[C@H](O)[C@@H]1O	-12	.
O=C([C@H]1[C@H](CO)[C@H]2Cn3c(cccc3=O)[C@H]2N1Cc1cocn1)N1CCC(Cc2ccccc2)CC1	-10[16.7 µM]	.
CN(C)C(=O)[C@@H]1[C@@H](CO)[C@@H]2Cn3c(ccc(C4=CCCC4)c3=O)[C@H]1N2CC1CCCC1	-15[16.7 µM]	.
C[C@H](NC(=O)C[C@H]1C[C@H]2c3cc(N(C)C)ccc3O[C@H]2[C@@H](CO)O1)c1ccccc1	27[16.7 µM]	.
COc1ccc(C(=O)C(=O)N2CCN(S(=O)(=O)c3cccc4c(N(C)C)cccc34)CC2)cc1OC	24	.
Cc1noc(C)c1S(=O)(=O)Nc1ccc2c(c1)CC(=O)N([C@H](C)CO)C[C@H](C)[C@H](CN(C)Cc1ccc(-c3ccccc3)cc1)O2	10[16.7 µM]	.
CO[C@@H]1CN(C)C(=O)c2cc(NS(=O)(=O)c3cn(C)cn3)ccc2OC[C@@H](C)N(CC2CC2)C[C@H]1C	-6[16.7 µM]	.
COc1ccc(CNC(=O)C[C@H]2C=C[C@@H](NC(=O)Nc3ccc4c(c3)OCO4)[C@@H](CO)O2)cc1	18[16.7 µM]	.
CO[C@H]1CN(C)C(=O)c2ccc(NS(C)(=O)=O)cc2OC[C@H](C)N(Cc2nccs2)C[C@H]1C	14[16.7 µM]	.
COc1ccc2c3c([nH]c2c1)[C@@H](CO)N(C(=O)C1CCOCC1)CC31CCN(C(=O)NC(C)C)CC1	6[16.7 µM]	.
COC(=O)N1C[C@H](OCc2cn(-c3ccc(OC)cc3)nn2)[C@H]2C[C@@H]1c1ccccc1O2	3	.
(more compounds)
SMILES	Env fusion inh	MT1-MMP act inh	others
CC(C)=NNc1cnnc2ccc([N+](=O)[O-])cc12	.	5	MT1-MMP act inh RFP=-5
CCOc1ccccc1C=NN=Cc1ccccc1O	.	0	MT1-MMP act inh RFP=-1
CC1C=CC=CC=CC=CC=CC=CC=CC(OC2OC(C)C(O)C(N)C2O)CC2OC(O)(CC(O)CC(O)C(O)CCC(O)CC(O)CC(=O)OC(C)C(C)C1O)CC(O)C2C(=O)O (stereo not given)	.	10	MT1-MMP act inh RFP=4
CCCn1c(N)c(N(CCOC)C(=O)CCC2CCCCC2)c(=O)[nH]c1=O	.	-1	MT1-MMP act inh RFP=0
CN1CCN(C2CN(Cc3cn(Cc4ccccc4)nn3)S(=O)(=O)C2)CC1 (stereo not given)	.	2	MT1-MMP act inh RFP=8
COC[C@H]1CCCN1c1ccc2c(c1)O[C@@H](COCc1ccccc1)CN([C@@H](C)c1ccccc1)S2(=O)=O	.	0	MT1-MMP act inh RFP=-7
COc1ccc(Cn2cc(CN3CC(N4CCN(CCO)CC4)CS3(=O)=O)nn2)cc1 (stereo not given)	.	6	MT1-MMP act inh RFP=9
CCCCN1C(=O)C(CC(=O)NC2CC2)CC(C(=O)N2CCOCC2)=C1C (stereo not given)	.	-1	MT1-MMP act inh RFP=2
CC(=O)c1ccc2c(c1)CC1(C2)Cc2cc3c(cc2C1)C(=O)CC3 (stereo not given)	.	-4	MT1-MMP act inh RFP=-18
O=C(O)c1ccccc1NC(c1ccccc1)c1ccc2cccnc2c1O (stereo not given)	.	2	MT1-MMP act inh RFP=-1
Nc1nc2ccccc2cc1C(=O)NCCCCc1ccccc1	.	13	MT1-MMP act inh RFP=-28
COC(=O)CCCn1cc(CN2CC(N3CCN(C)CC3)CS2(=O)=O)nn1 (stereo not given)	.	1	MT1-MMP act inh RFP=8
CC(C)c1ccc(C2(C)NC(=O)N(CC(=O)NC3(C#N)CCCC3)C2=O)cc1 (stereo not given)	.	1	MT1-MMP act inh RFP=-3
CCC12CC1(C(=O)OC)C(=O)N1CCc3c([nH]c4ccccc34)C12 (stereo not given)	.	5	MT1-MMP act inh RFP=8
O=C1CSCc2nc3ccccc3n21	.	-10	MT1-MMP act inh RFP=-1
